# Source: PubChem (NMMLSC)
# Bead autofluor: compound fluorescence in toxin protease inhibitor counterscreen. compound autofluorescence counterscreen, microsphere flow cytometry; active compounds read high. fluorescence intensity (test concentration not listed). 360,000 compounds, 3.1% hits;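 active = at least 3 SD above the mean of all compounds, about 16000 in these data; inconclusive = too few beads counted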;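 note: 100 nL of 1 mM stock went into each well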
# Numbers without * were called inactive; ? = inconclusive. A portion of the library; the hit share may differ from the screen's.
SMILES,Bead autofluor
Cc1cccc(C)c1-n1nnnc1-c1nc2cc(Br)ccc2[nH]c1=O,6203
Oc1cccc(-c2ccc3nccn3c2)c1,3543
CCOC(=O)[C@]12CCCC=C1N(Cc1ccco1)C(=O)[C@H](CC(=O)NCCCOC)C2,4509
O=C(c1cc(C2CCCCN2C(=O)CCCc2ccccc2)on1)N1CCOCC1 (stereo unspecified),3734
COc1cc2ccc(C(C)=NNC(N)=S)cc2cc1OC,3841
COc1cc(NC(=O)COc2ccc([N+](=O)[O-])cc2)ccc1NC(=O)c1ccco1,3997
COc1ccc(N/C(N)=N/c2nc(C)cc(C)n2)cc1,3621
O=C(c1ccco1)N1N=C(c2ccccc2O)CC1c1cccs1 (stereo unspecified),3654
CC(=O)Nc1ccc2cnn(C(C)=O)c2c1,3756
O=C(NCc1ccncc1)[C@@H]1CCCN1C(=O)[C@H]1CCCN1C(=O)c1cccc(Cl)c1,5547
N#CCC(=O)Nc1ccc(C(=O)OCC(=O)Nc2cccc3ccccc23)cc1,3029
CC1(c2ccc(F)cc2)OC(=O)c2c1ccc1ccccc21 (stereo unspecified),3642
CCc1nc2c(OCC3CCCCC3)cccn2c1N(C)C(=O)c1ccc(OC)cc1,3549
Cc1cc(C)c(C(O)c2ncc(-c3cccc4ccccc34)[nH]2)c(C)c1 (stereo unspecified),2853
COc1ccc(NC(=O)C2(C)CCN2C(=O)CC2CCCC2)cc1OC (stereo unspecified),3452
O=S1(=O)CCN(C2CCCCCCC2)CC1,3412
COc1ccc(-c2ccc(C(=O)NCC3CCOCC3)c3occc23)c(C)c1,3879
CCCCCCCCN1C(=O)[C@H](CC(=O)NCC2CCCCC2)C[C@@]2(C(=O)OC)CCCCC=C12,5102
CC(C)(C)C1CCN2CCCC(c3ccc([N+](=O)[O-])cc3)(C1)C21OCCO1 (stereo unspecified),5168
Cc1ccc(S(=O)(=O)N2CCOCC2)cc1NC(=O)Cn1nnc(-c2ccccc2)n1,2944
CCOC(=O)C1(C)CCCN(C(=O)c2ccccc2OC(F)(F)F)C1 (stereo unspecified),3243
NC(CCc1ccccc1)c1csc(Nc2ccc(C(=O)c3ccccc3)cc2)n1 (stereo unspecified),3444
CSc1cnn(CCC#N)c(=O)n1,6035
CC1(Cc2cc(Cl)ccc2C(F)(F)F)C(=O)Nc2cc(C(F)(F)F)ccc21 (stereo unspecified),2877
COC(=O)c1ccc2nc(-c3ccc(C)cc3)c(Cc3ccc(C)cc3)n2c1,5863
COc1ccc(F)cc1-c1cc(C(=O)N2CCc3ccccc3C2)[nH]n1,3799
COc1cc(-c2cc(NC(C)=O)c3ncc(-c4ccc(C(C)=O)cc4)n3c2)cc(OC)c1OC,3793
O=S(=O)(c1ccc(NC(=S)N2CCOCC2)cc1)N1CCCCC1,2952
O=C(Cc1cccs1)NCCS(=O)(=O)N1CCN(c2ccccc2)CC1,3950
CCNC(=S)N1CCC(C(=O)c2ccc(F)cc2)CC1,3892
COc1ccc(-c2sc3ccccc3c2-c2ccc(OC)cc2F)cc1,5544
CCCc1ccc(C(O)c2ncc(-c3ccc(OC)cc3)[nH]2)cc1 (stereo unspecified),3686
CC1=C(C(=O)N(C(C)C)C(C)C)CC(CC(=O)NCc2cccc3ccccc23)C(=O)N1CCC1=CCCCC1 (stereo unspecified),5977
C[C@H](CO)N1C[C@H](C)[C@H](CN(C)S(=O)(=O)c2cn(C)cn2)OCc2cnnn2CCCC1=O,3203
Cn1c(=O)cc(OCCCC(=O)Nc2cccc(Cl)c2)c2ccccc21,3113
CC1(C(=O)NC2CCN(Cc3ccccc3)CC2)CCN1Cc1ccc(OC(F)(F)F)cc1 (stereo unspecified),3846
Cc1ccc(S(=O)(=O)N2C[C@H]3[C@H]4C(=O)N(c5ccccc5)C(=O)[C@H]4C[C@H](OC(=O)NCc4ccccc4F)[C@@]3(O)C2)cc1,4091
CCOC(=O)c1cc2ccccc2n1C1CCN(C)CC1,4375
COc1ccc(CN(C)CCCn2cnc3c(SC)ncnc32)cc1OC,3716
NC(=O)NC(CC(=O)OCC(=O)Nc1nnc(-c2ccccc2)o1)c1ccc(Cl)cc1 (stereo unspecified),2990
O=C(O)C=Cc1c[nH]c2nccnc12,3773
COC(=O)C[C@@H]1C[C@@H]2c3cc(NS(=O)(=O)c4ccc(F)cc4)ccc3O[C@@H]2[C@H](CO)O1,3016
CN(N=Nc1nc[nH]c1C(N)=O)C1CCCCC1,4119
CC1ON=C(c2ccccn2)N(Cc2ccc(S(C)(=O)=O)cc2)C1=O (stereo unspecified),5003
O[C@@H]1CN(Cc2cccs2)[C@@H](c2ccccc2)C[C@H]1n1cc(C2CC2)nn1,2927
CNC(=O)C1CCC(=O)N1Cc1c[nH]c2ccccc12 (stereo unspecified),4187
Cc1ccccc1-c1cc2nc(NCc3ccc(N(C)C)cc3)n(C)c(=O)c2s1,3911
C[C@@H]1CCCCO[C@@H](CN(C)CC2CCCCC2)[C@@H](C)CN([C@H](C)CO)C(=O)c2cc(NS(=O)(=O)c3ccc(Cl)cc3)ccc2O1,2935
CCCOc1cccn2c(N(C)C(=O)c3ccccc3F)c(CC)nc12,4099
COCCNc1nc(Oc2ccccc2)c2sccc2n1,4206
C[C@@H](NC(=O)[C@@H]1CCCN1C(=O)[C@@H]1CCCN1)c1ccccc1,5670
O=C(N=C1SC2CS(=O)(=O)CC2N1Cc1ccccc1)C1CC1 (stereo unspecified),3846
O=c1ccoc2ccccc12,4952
COc1ccc([C@H]2N[C@]3(CCCN(Cc4ccc(C(F)(F)F)cc4)C3=O)[C@H]3C(=O)N(Cc4ccccc4)C(=O)[C@@H]23)cc1,2987
O=C1NC[C@@H](CCCCN2CCN(CCc3ccc(O)cc3)C(=O)C2=O)N(Cc2ccccc2)C1=O,5294
COc1ccc(-c2csc(C(C)(NC(C)=O)c3ccc(OC)cc3)n2)cc1 (stereo unspecified),3884
O=C(NCc1cccnc1)OC1CC2CC1[C@H]1CCCCN1C2=O (stereo partly specified),3935
O=C(c1cccs1)N1C[C@@H](O)[C@H](n2cc(-c3ccc(F)cc3)nn2)C[C@@H]1c1ccccc1,3723
CC1(C)Cc2cccc(OCC(=O)OCC(=O)Nc3ccc(S(N)(=O)=O)cc3)c2O1,3890
COC(=O)c1ccccc1COc1cccn2c(N(C)CC3CC3)c(C)nc12,3265
# (next part)
SMILES,Bead autofluor
CC1=C(C(=O)N2CCCCCC2)CC(CC(=O)NC2CCCCC2)C(=O)N1CCC1=CCCCC1 (stereo unspecified),6798
CCc1nc2c(OCC(=O)C(C)(C)C)cccn2c1N(C)C(=O)c1ccccc1F,3603
O=C1CC[C@@H](C(=O)N2CSC[C@@H]2C(=O)Nc2ccc(C(F)(F)F)cc2)N1,2990
COCCCNC(=O)C[C@@H]1C[C@@]2(C(=O)OC)CCCCC=C2N(Cc2cccc3ccccc23)C1=O,4177
Nc1nc(N)c2c(n1)CN(Cc1ccc(Cl)cc1)C2,4241
COc1ccc(NC(=O)C2(C)CCCN2C(=O)C(C)C)cc1OC (stereo unspecified),3548
NC(=O)NN=C1CCN2CCCc3cccc1c32,3795
c1ccc(COc2ncnc3c2ncn3CCCNCc2cccs2)cc1,2954
O=C(O)C1CCCN1c1nc(Cl)ccc1[N+](=O)[O-] (stereo unspecified),3479
NC(=O)c1nc2c([nH]c1=O)CCCC2,3990
CN(C)c1ccc(/C=C2\c3ccccc3C(=O)N2c2ccccc2)cn1,4288
COc1ccc(S(=O)(=O)N2CCC(C(=O)NCCc3ccc(OC)c(OC)c3)CC2)cc1,3699
O=C(NC1CCCCC1)C1c2ccccc2OCC(=O)N1Cc1cccnc1 (stereo unspecified),6176
CCCCCc1c(-c2ccc(Cl)cc2)ncn1CCc1ccccc1OC,6234
CN(C)C(=O)c1cccc(-c2cnc3c(NC=O)cc(-c4ccccc4F)cn23)c1,3149
OC(c1ccccc1)c1ccccc1CN1CCCNC1=S (stereo unspecified),3048
C[C@@H]1CN([C@@H](C)CO)C(=O)CCCn2nncc2CO[C@@H]1CN(C)C(=O)C1CCCCC1,2959
COCCNc1nc(Oc2ccc(Cl)c(Cl)c2)c2sccc2n1,3305
CC(=O)OCC(=O)C1(O)CCC2C3CCC4CC(O)CCC4(C)C3C(=O)CC21C (stereo unspecified),5383
Cc1cc(F)ccc1-c1cc(C(=O)NCc2cccc(C(F)(F)F)c2)[nH]n1,4232

# Fetched by structure from the list above (2):
SMILES,Bead autofluor
O=C(O)C1CCCN1c1nc(Cl)ccc1[N+](=O)[O-] (stereo unspecified),3479
Nc1nc(N)c2c(n1)CN(Cc1ccc(Cl)cc1)C2,4241

# Following part:
SMILES,Bead autofluor
COc1ccc(-c2nc3c4ccccc4ccn3c2Cc2ccccc2C(F)(F)F)cc1OC,6438
CCCc1cnc(Nc2nc(C(N)Cc3ccc(C(F)(F)F)cc3)cs2)nc1 (stereo unspecified),2915
COc1cccc(S(=O)(=O)N(C)C[C@@H]2OCc3cn(nn3)CCCC(=O)N([C@@H](C)CO)C[C@H]2C)c1,3705
COc1cccc(C(=O)NCC[N+](C)(C)C)c1,5997
O=S1(=O)CC(N2CCCC2)CN1Cc1cn(Cc2ccccc2)nn1 (stereo unspecified),6205
COc1ccc(-c2cnc3c(NC(C)=O)cc(-c4ccc(S(C)(=O)=O)cc4)cn23)cc1OC,3583
CS(=O)(=O)Nc1cccc(NC(=O)c2cccc3c(-c4cccnc4)coc23)c1,3659
CCCCc1c(-c2ccccc2OC)ncn1CCc1ccc(Cl)cc1,6194
Cc1cccc(C)c1-n1nnnc1C1(C)CCC(=O)N1Cc1ccc(F)cc1 (stereo unspecified),4209
CCCCNC(=O)C[C@@H]1C[C@@]2(C(=O)OCC)CCCC=C2N(Cc2ccc3c(c2)OCO3)C1=O,5163
O=C1NC[C@H](CCCCN2C[C@H](Cc3ccccc3)N(CCC3CCCCC3)C(=O)C2=O)N(CCC2CCCCC2)C1=O,5164
O=c1cc(-c2ccccc2)nc2c(Cl)cc(Cl)cn12,3504
CCCS(=O)(=O)NC(=O)C1(C)CCCN(C(=O)c2ccc(OC)cc2)C1 (stereo unspecified),3532
O=C(O)c1c[nH]c2nccnc12,3880
COc1cc(C(O)c2nc(-c3cccc(F)c3)cs2)ccc1F (stereo unspecified),3244
O=C(/C=C/[C@H]1O[C@@H](n2cnc3c(NC(=O)c4ccccc4)ncnc32)[C@H](O)[C@@H]1O)NCC(c1ccccc1)c1ccccc1,5757
O=C(N/N=C/c1ccccc1C(=O)O)c1cccc(S(=O)(=O)N2CCCCC2)c1,?
CCN(CC)c1ncnc2c1ncn2[C@H]1CN(Cc2ccc3c(c2)OCO3)C[C@@H](CO)O1,3696
CC(C)C[C@H]1CN(CCCC[C@@H]2CNC(=O)C(=O)N2CCc2ccccc2)C(=O)C(=O)N1CCc1ccccc1,5389
CCc1nc2c(OCCOc3ccccc3)cccn2c1N(C=O)Cc1ccc(OC)cc1,3275
CC1(C(=O)NS(=O)(=O)c2cccc(Cl)c2)CCN1C(=O)C/C=C/c1ccccc1 (stereo unspecified),2944
CN(Cc1cn(Cc2ccccc2)nn1)C1CN(Cc2cn(Cc3ccccc3)nn2)S(=O)(=O)C1 (stereo unspecified),5558
CCCOc1ccccc1OCC(=O)N1CCN(CC(=O)N2CCOCC2)CC1,3948
Cc1cccc(C)c1NC(=O)C1c2ccccc2OCC(=O)N1CCc1c[nH]c2ccccc12 (stereo unspecified),5589
COc1ccc(CCNCCC(c2ccccc2)c2ccccc2)cc1OC,3490
Cc1ccc(F)c(S(=O)(=O)NC(=O)C2(C)CCN2C(=O)Cc2ccsc2)c1 (stereo unspecified),3898
CCCc1c(-c2cccc(F)c2)ncn1Cc1ccccc1OC,6212
CCCCCCN1C[C@H](O)[C@@H](n2cc(-c3ccc(F)cc3)nn2)C[C@@H]1c1ccc(C)cc1,3203
c1cc(-c2cc3nc(NCC4CC4)ccn3n2)ccc1OCCN1CCOCC1,4065
CC(C)(C)NC(=O)CN1C(=O)c2cccc3cccc1c23,3709
CCN1C(=O)[C@H]2[C@@H](c3ccc(C)cc3)N[C@]3(CCCN(Cc4ccc(F)cc4)C3=O)[C@H]2C1=O,3308
CCNC(=O)C1CCCN(C(=O)c2cccc(C#N)c2)CC1 (stereo unspecified),3793
COc1cccc(C(C)(O)c2nc(-c3cccc(C(C)C)c3)cs2)c1 (stereo unspecified),2852
Cc1cc(Cl)ccc1-c1nc(NCc2ccccc2)nc2ccsc12,3882
O=C(CC[C@H]1O[C@@H](n2ccc(=O)[nH]c2=O)[C@H](O)[C@@H]1O)NCCc1c[nH]c2ccccc12,5405
CCCc1nc2c3ccccc3ccn2c1CC1CCCCC1,5910
CCOC(=O)[C@]12Cc3cc(Cl)ccc3[C@H]1N(Cc1ccccc1)C(=O)c1cc(OC)ccc12,5523
COC(=O)C1=C(c2ccccc2OCc2ccccc2)C[C@@H]2CC[C@H]1N2C,3558
C(=C\c1ccccc1)/CN1CCN(C(c2cc3ccccc3o2)c2nnnn2Cc2ccccc2)CC1 (stereo unspecified),4596
Oc1c(C(c2ccccc2)N2CCCCC2)ccc2ccccc12 (stereo unspecified),4299

# Structural class: the entries above containing a Cl atom (14)
SMILES,Bead autofluor
O=C(NCc1ccncc1)[C@@H]1CCCN1C(=O)[C@H]1CCCN1C(=O)c1cccc(Cl)c1,5547
CC1(Cc2cc(Cl)ccc2C(F)(F)F)C(=O)Nc2cc(C(F)(F)F)ccc21 (stereo unspecified),2877
Cn1c(=O)cc(OCCCC(=O)Nc2cccc(Cl)c2)c2ccccc21,3113
NC(=O)NC(CC(=O)OCC(=O)Nc1nnc(-c2ccccc2)o1)c1ccc(Cl)cc1 (stereo unspecified),2990
C[C@@H]1CCCCO[C@@H](CN(C)CC2CCCCC2)[C@@H](C)CN([C@H](C)CO)C(=O)c2cc(NS(=O)(=O)c3ccc(Cl)cc3)ccc2O1,2935
Nc1nc(N)c2c(n1)CN(Cc1ccc(Cl)cc1)C2,4241
O=C(O)C1CCCN1c1nc(Cl)ccc1[N+](=O)[O-] (stereo unspecified),3479
CCCCCc1c(-c2ccc(Cl)cc2)ncn1CCc1ccccc1OC,6234
COCCNc1nc(Oc2ccc(Cl)c(Cl)c2)c2sccc2n1,3305
CCCCc1c(-c2ccccc2OC)ncn1CCc1ccc(Cl)cc1,6194
O=c1cc(-c2ccccc2)nc2c(Cl)cc(Cl)cn12,3504
CC1(C(=O)NS(=O)(=O)c2cccc(Cl)c2)CCN1C(=O)C/C=C/c1ccccc1 (stereo unspecified),2944
Cc1cc(Cl)ccc1-c1nc(NCc2ccccc2)nc2ccsc12,3882
CCOC(=O)[C@]12Cc3cc(Cl)ccc3[C@H]1N(Cc1ccccc1)C(=O)c1cc(OC)ccc12,5523
